Compound activity: PubChem BioAssay, National Center for Advancing Translational Sciences (NCATS)
Cruzain noTriton: inhibitors of Trypanosoma cruzi cruzain without detergent; purified cruzain, Z-FR-AMC fluorescence, no detergent; Potency, µM, for inactives: max response, negative = inhibition, most hits filed as inhibitors; actives 2.3% (n = 200,000); AID 1476; active = well fitted curve in the direction sought with a large enough effect; inconclusive = small, poorly fitted or top-dose-only effect, or another doubt; inactive = no such curve, though single readings can be large; an effect the other way counts as inactive or inconclusive;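 note: plate controls were enzyme without inhibitor for no effect and buffer without enzyme for full effect; nearly all actives have a fitted effect of over 40% in size; top concentration of the series not given in the record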
Target sequence (P25779 123-467 limits assumed): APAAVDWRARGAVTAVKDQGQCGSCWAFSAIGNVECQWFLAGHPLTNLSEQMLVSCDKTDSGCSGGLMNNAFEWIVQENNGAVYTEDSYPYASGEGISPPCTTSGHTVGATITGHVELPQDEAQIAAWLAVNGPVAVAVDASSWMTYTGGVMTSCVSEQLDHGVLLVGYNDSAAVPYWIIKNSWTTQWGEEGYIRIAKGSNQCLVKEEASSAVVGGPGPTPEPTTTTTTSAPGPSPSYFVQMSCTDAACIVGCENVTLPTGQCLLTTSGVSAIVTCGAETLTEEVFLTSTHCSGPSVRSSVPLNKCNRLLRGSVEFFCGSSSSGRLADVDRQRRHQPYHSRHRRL
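Detergent-free condition (0.00005% Triton X-100) in acetate buffer pH 5.5 with DTT. 1.5 nM enzyme and compound were pre-mixed 15 min, then 2 uM Z-FR-AMC substrate added; reaction progress from fluorescence change between first and third reads (60 s).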
Marburg entry inh: blocks Marburg virus binding to or entry into cells; Marburg virus pseudotyped entry inhibition, cell reporter; control for the full effect not named in the record; about a third of the inactives were read at about 46 µM; actives 1.8% (n = 300,000); Potency, µM (series often up to 37.8 µM), for the others: at the highest dose activity change, negative = inhibition, most hits filed as inhibitors; active = well fitted inhibition curve with a large enough effect; inconclusive = small, poorly fitted or top-dose-only effect, or effect the other way; inactive = flat fitted curve, though single readings scatter; tested in HEK293 cells; about a fifth of its hits are not listed in these tables; note: % is set by controls: 0 for no effect and ±100 for the full control effect; luciferase read-out
2A StopGo: FMDV 2A StopGo reporter, luciferase signal | human cells with a luciferase reporter of 2A StopGo recoding; control for the full effect not named in the record | Potency, µM (top dose mostly 57.9 µM), for inactives: at the highest dose signal change, negative = less light | actives 1.2% (n = 410,000) | AID 1159524; active = well fitted falling curve with a large enough effect; inconclusive = small, poorly fitted or top-dose-only effect; inactive = no such curve, though single readings can be large or run the other way; tested in HEK293T cells; note: % is set by controls: 0 for no effect and ±100 for the full control effect; nearly all actives have a fitted effect of over 45% in size; luciferase light after 4 h
SARS PLP yeast: SARS-CoV PLP inhibition in yeast | S. cerevisiae expressing SARS-CoV PLpro, growth rescue; control for the full effect not named in the record | Potency, µM (series often up to 32.9 µM), for the others: top-dose activity, positive = growth rescue | actives 0.19% (n = 330,000) | AID 485353; note: 0% is about no effect; nearly all actives have a fitted effect of over 55% in size; growth read by luminescence after 48 h
NS1 function inh: inhibitors of influenza NS1 protein function | S. cerevisiae slowed by influenza A NS1, growth recovery by OD600 | Potency, µM (series often up to 46.1 µM), inactives show at the top dose activity, positive = more growth | actives 0.4% (n = 270,000) | AID 2326; note: actives are rising curves; nearly all actives have a fitted effect of over 50% in size
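S. cerevisiae expressing influenza A NS1, grown in glucose, washed, then diluted 1:100 into pH 6.0 -URA galactose medium with 23 nl compound. Growth recovery read as OD600; NS1-free strain serves as control.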
LASV entry inh: inhibitors of Lassa virus binding or cell entry | Lassa virus pseudotype entry inhibition, cell reporter; control for the full effect not named in the record | Potency, µM (top dose mostly 37.9 µM), without a hit: at the highest dose activity change, negative = inhibition, usual class: inhibitors | actives 1.2% (n = 300,000) | AID 540256; active means well fitted inhibition curve with a large enough effect; inconclusive means small, poorly fitted or top-dose-only effect, or effect the other way; inactive means flat fitted curve, though single readings scatter; tested in HEK293 cells; note: % is set by controls: 0 for no effect and ±100 for the full control effect; nearly all actives have a fitted effect of over 50% in size; luciferase read-out
Cruzain inh Det: cruzain (T. cruzi) inhibition with detergent | purified cruzain, Z-FR-AMC fluorescence, 0.01% Triton | P25779 | Potency, µM, for inactives: max response, negative = inhibition, actives largely listed as inhibitors | actives 0.43% (n = 200,000); active = well fitted curve in the direction sought with a large enough effect; inconclusive = small, poorly fitted or top-dose-only effect, or another doubt; inactive = no such curve, though single readings can be large; an effect the other way counts as inactive or inconclusive;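 note: plate controls were neutral wells for no effect and buffer without enzyme for full effect; nearly all actives have a fitted effect of over 40% in size; top concentration of the series not given in the record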
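In this qHTS format, compounds are incubated with 1.5 nM cruzain for 15 min at room temperature before 2 uM Z-FR-AMC is added. Release of AMC is followed at 360/450 nm, and progress is taken as the 60 s fluorescence difference.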
RE007 growth inh: less growth of the S. pombe RE007 Vpr strain. S. pombe RE007 Vpr strain, BacTiter-Glo ATP luminescence, 24 h; control for the full effect not named in the record. Potency, µM (top dose mostly 92.2 µM), for inactives: top-dose activity change, negative = less growth. actives 0.21% (n = 360,000). AID 651644; active = well fitted falling curve with a large enough effect; inconclusive = small, poorly fitted or top-dose-only effect; inactive = no such curve, though single readings can be large or run the other way;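 note: % is set by controls: 0 for no effect and ±100 for the full control effect; nearly all actives have a fitted effect of over 50% in size; the assay follows cell death caused by Vpr and the record does not say whether a fall means rescue or toxicity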
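Fission yeast strain RE007, carrying one chromosomally integrated HIV-1 vpr copy, was seeded at OD 0.01 in PMG+AL medium with 23 nL pinned compound. After 24 h at 30 °C and 99% humidity, viability was read by BacTiter-Glo luminescence.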
* hit, by the source's call; ? = inconclusive; nt = no result given; [ ] = another dose, or the depositor's remark. Unless noted, calls come from the whole dose curve; as a rule, active means well fitted rising curve with a large enough effect; inconclusive means small, poorly fitted or top-dose-only effect; inactive means no such curve, though single readings can be large or run the other way. Potency is the fitted concentration of half-maximal effect.

compound,Cruzain noTriton,Marburg entry inh,2A StopGo,SARS PLP yeast,NS1 function inh,LASV entry inh,Cruzain inh Det,RE007 growth inh
CN1CCN(S(=O)(=O)c2cc(Cl)c(Cl)cc2Cl)CC1,nt,?,-8%,-1%,21%,-1%,nt,9%
COc1ccc(NC(=O)CC2C(=O)N(c3cccc(OC)c3)C(=O)N2Cc2ccc3c(c2)OCO3)cc1 (configuration not stated),2%,-27%[46.1 µM],15%,nt,nt,?,-1.0%,nt
CC(=O)N1CCN(CCN=Cc2c(O)n(-c3ccc(C)cc3)c(=S)[nH]c2=O)CC1,nt,0%[46.1 µM],-13%,1%,7%,-12%[46.1 µM],nt,8%
COc1ccccc1OC(C)c1nnc(SCC(=O)Nc2c(C)n(C)n(-c3ccccc3)c2=O)n1-c1ccccc1 (configuration not stated),?,27%,4%,1%,21%,17%,3.0%,5%
CNC(=O)CS(=O)(=O)CC(=O)Nc1cc(OC(C)C)c(Cl)cc1Cl,nt,-7%[46.1 µM],7%,0%,-3%,-15%[46.1 µM],nt,-2%
CC(C)(C)OC(=O)N1CCC(c2c(C(=O)N3CCN(C4CCCCC4)CC3)cnn2-c2ccc(F)cc2)CC1,nt,28%[46.1 µM],-9%,21%,-1%,?,nt,-3%
COc1ccc(NC(=O)N/C=C/c2ccco2)cc1,nt,2%[46.1 µM],-10%,0%,nt,-13%[46.1 µM],nt,2%
COc1cc2c(cc1OC)CN(C(=O)Cc1ccc(OC)c(S(=O)(=O)N3CCOCC3)c1)CC2,2%,nt,-6%,0%,-3%,0%,-1.1%,0%
CC(C)(C)c1ccc(NC(=O)Cn2cnc3cc([N+](=O)[O-])ccc3c2=O)cc1,nt,-6%[46.1 µM],1%,-7%,-1%,15%[46.1 µM],nt,-6%
CCN(CC)S(=O)(=O)c1cccc(NC(=O)CSc2nc3ccccc3[nH]2)c1,nt,?,?,0%,nt,-22%[46.1 µM],nt,0%
COc1cccc(-c2nn3c(=O)cc(CN4CCN(C(=O)COc5ccccc5C)CC4)nc3s2)c1,5%,nt,3.5µM*,nt,nt,18%[46.1 µM],1.8%,nt
CCOC(=O)[C@@H]1[C@H]2COc3ccc(Br)cc3[C@@H]2N2C(=O)N(c3cccc(C)c3)C(=O)[C@]12C,nt,nt,-19%,-4%,21%,nt,nt,2%
CCN(CC)c1ccc(S(=O)(=O)N2CCOCC2)cc1NC(=O)COC(=O)c1cccnc1SC,nt,-9%[46.1 µM],-15%,-8%,nt,?,nt,0%
CCOC(=O)N1CCN(C(=O)c2oc3ccc(S(=O)(=O)N4CC(C)CC(C)C4)cc3c2C)CC1 (configuration not stated),?,?,?,0%,-42%,14%,0.8%,3%
COC(=O)C(C)C1Sc2ccccc2NC1=O (configuration not stated),-16%,-1%,-13%,-1%,4%,13%,5.4%,-7%
CN1CCc2c(sc(NC(=O)c3cc(Cl)sc3Cl)c2C(N)=O)C1,nt,nt,-18%,2%,-23%,nt,nt,-5%
C=CS(=O)(=O)c1c2cc(OC)ccc2nc2ccc(OC)cc12,nt,?,28µM*,nt,nt,?,nt,23%
CCOc1ccc(N(C)S(=O)(=O)c2cc(-c3cc(C)no3)ccc2CC)cc1,nt,?,18µM*,-4%,3%,?,nt,6%
COc1cc(NC(=O)c2cc(-c3ccco3)on2)cc(OC)c1OC,nt,?,-3%,-8%,-22%,-24%[46.1 µM],nt,-5%
Cn1c(=O)c2c(nc(SCCCC#N)n2Cc2ccccc2F)n(C)c1=O,5%,-23%,-15%,-6%,12%,-8%,-4.6%,-14%

Additional entries.
compound,Cruzain noTriton,Marburg entry inh,2A StopGo,SARS PLP yeast,NS1 function inh,LASV entry inh,Cruzain inh Det,RE007 growth inh
CCN1CCN(c2ccc(S(=O)(=O)N3CCOCC3)cc2NC(=O)c2ccccc2OC(F)F)CC1,nt,?,-6%,-2%,nt,-15%,nt,-11%
Cn1nccc1C(=O)N1CCCC(C(=O)c2ccc(C(F)(F)F)cc2)C1 (configuration not stated),nt,-14%[46.1 µM],-7%,-1%,-1%,-20%[46.1 µM],nt,-15%
O=C(CSc1nnc(-c2cccnc2)o1)Nc1ccccn1,-3%,4%,27%,1%,7%,-12%,3.1%,-7%
COC(=O)Cc1[nH]c(Cl)nc1C(N)=O,nt,2%[46.1 µM],-15%,0%,-1%,4%,nt,2%
Nc1ccc2nn(-c3cc([N+](=O)[O-])ccc3O)nc2c1,nt,nt,50%[activator],0%,8%,nt,nt,-7%
O=C(Nc1nnc(SCc2cccc3ccccc23)s1)C1COc2ccccc2O1 (configuration not stated),25µM*,?,0%,20%,16%,9%,-3.4%,nt
O=C(O)C1C2CCC(CC2)C1C(=O)O (configuration not stated),nt,19%,-18%,nt,nt,-4%,nt,29%
CC(=O)c1cccc(NC(=O)N2CC(C)OC(C)C2)c1 (configuration not stated),nt,nt,-9%,3%,3%,nt,nt,7%
CCOc1ccc(CNCCc2ccc3c(c2)OCO3)cc1,nt,nt,-2%,-1%,?,nt,nt,-6%
Cc1c(C(=O)Nc2ccc(S(=O)(=O)Nc3ncccn3)cc2)oc2ccc(Cl)cc12,nt,?,-19%,20%,15%,-17%,nt,-8%
Cc1oc(/C=N/NS(=O)(=O)c2ccccc2)cc1Br,0%,?,23%,-20%,-12%,1%,-8.4%,-8%
NC(=O)NOCc1c(F)cccc1Cl,nt,14%[46.1 µM],-2%,0%,0%,18%[46.1 µM],nt,6%
CN(C)CCCN(Cc1ccc2c(c1)OCO2)C(=O)NC1CCCCC1,nt,-19%,9%,0%,4%,15%,nt,-10%
Cc1ccc2nc(/C(C#N)=C/c3ccc(-c4ccccc4C(=O)O)o3)[nH]c2c1,nt,nt,7%,2%,10%,nt,nt,1%
CC1CCN(CCC(=O)Nc2ccc(Cl)cc2)CC1,nt,?,-13%,1%,2%,-6%,nt,3%
Cc1cccc(CCNC(=O)CCc2nc(-c3ccccc3F)no2)c1,1%,?,-27%,-7%,-46%,1%,3.8%,-7%
CSc1nnc(Cn2c(=O)sc3ccccc32)n1CCc1ccccc1,-4%,nt,-17%,-6%,-45%,nt,-3.9%,3%
CCn1c(=O)cc(SCC(=O)Nc2ccc3c(c2)OCO3)c2ccccc21,21%,-3%,-1%,-1%,-23%,16%,-10%,6%
Cc1cccc(-n2cc(CN3CCCN(C=O)CC3)c(-c3cccc(F)c3)n2)c1,nt,?,16%,-1%,3%,12%,nt,-4%
Cc1ccc(Nc2nc(Cl)nc(NC3CCCCC3)n2)cc1,nt,?,37%[activator],-1%,-4%,-26%,nt,75%

New compounds follow.
compound,Cruzain noTriton,Marburg entry inh,2A StopGo,SARS PLP yeast,NS1 function inh,LASV entry inh,Cruzain inh Det,RE007 growth inh
O=C(C1CC(c2ccccc2O)=NO1)N1CCC2(CC1)OCCO2 (configuration not stated),-6%,?,5%,5%,-4%,-24%,-4.7%,5%
O=C(NCc1ccc(F)cc1)C(=O)NCC1OCCN1C(=O)c1ccc(Cl)cc1 (configuration not stated),-6%,-3%,-23%,24%,-19%,-4%,-0.4%,-9%
O=C(Cn1nc(-c2ccccc2)ccc1=O)N1CCC2(CC1)OCCO2,nt,-9%[46.1 µM],-2%,0%,nt,-1%,nt,2%
Cc1noc(NS(=O)(=O)c2ccc(NC(=O)Nc3ccc(Cl)c(Cl)c3)cc2)c1C,24%,1%,-2%,-7%,-191%,2%,?,8%
COc1cccc(-c2noc(N)c2C#N)c1,-9%,1%,26%,-4%,-55%,8%,1.9%,4%
CCCCCC1(C(=O)OCC)CC(CSC(=N)N)OC1=O (configuration not stated),nt,-28%,?,-1%,0%,-20%,nt,-4%
COc1ccc(C(=O)N/C(=C/c2cccs2)C(=O)NC(C)(C)C)cc1OC,nt,-1%[46.1 µM],-4%,1%,5%,-11%[46.1 µM],nt,-1%
CCOc1ccc(C(O)c2nccn2C)cc1 (configuration not stated),-9%,4%,4%,-3%,8%,20%,8.4%,-14%
COc1ccccc1NC(=O)c1c(N=Cc2cccc([N+](=O)[O-])c2)cnn1C,nt,-2%[14.2 µM],?,0%,-1%,0%,nt,0%
COc1cc(O)c(C(C)=O)c(CC(=O)O)c1,nt,nt,-14%,2%,7%,nt,nt,7%
Cn1nc(C(=O)NNC(=O)c2ccccc2F)c2ccccc2c1=O,nt,10%,-15%,4%,nt,3%,nt,-23%
O=C(c1cccc(S(=O)(=O)N2CCc3ccccc32)c1)N1CCN(CCO)CC1,nt,?,14%,-1%,nt,6%[46.1 µM],nt,-4%
CN(C)c1cccc(NC(=O)c2ccco2)c1,nt,17%[46.1 µM],32%[activator],-4%,-2%,4%[46.1 µM],nt,-10%
Cc1nnc(NC(=O)c2cccc(NC(=O)C(C)C)c2)s1,0%,-1%,12%,4%,7%,10%,6.8%,7%
CCOC(=O)C1CCN(c2c(NCCCN(C)C3CCCCC3)c(=O)c2=O)CC1,-13%,-6%,-15%,-7%,11%,16%,-3.7%,-6%
CCCCn1c(N)c(N(CCC(C)C)C(=O)CCN2C(=O)C3CC=CCC3C2=O)c(=O)[nH]c1=O (configuration not stated),nt,-19%[46.1 µM],-2%,0%,nt,-13%,nt,-27%
Cc1csc(NC(=O)c2cnccn2)n1,-28%,3%,14%,-1%,4%,17%,1.6%,-14%
CC(C)c1nc2sc3c(SCCN(C)C)ncnc3c2c2c1CCC2,nt,-6%[46.1 µM],-6%,nt,nt,1%,nt,0%
CCOc1ccc(NC(=O)NCc2ccccn2)cc1,nt,nt,28%,5%,16%,nt,nt,14%
NC(=O)C1CCN(CCC(=O)Nc2ccc3c(c2)CCC3)CC1,-11%,-4%,4%,-19%,8%,-5%,-2.7%,-3%
